# Bioassay records (PubChem BioAssay)
# Imprint erasure: genomic imprint erasure induction; mouse ES Peg3-LacZ reporter, beta-gal luminescence, 40 h; actives 0.02% (n = 110,000); Potency, µM (highest dose often 60.7 µM), for the others: at the highest dose activity change, positive = activation, usual class: activators; active = well fitted activation curve with a large enough effect; inconclusive = small, poorly fitted or top-dose-only effect; inactive = no such curve, though single readings can be large or run the other way;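 note: 0% = negative control wells on the plate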
#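 Imprint erasure is scored as LacZ activity from the silenced maternal Peg3 allele in feeder-free female ES cells cultured 40 h with LIF. Luminescence is normalized to in-plate negative controls and fitted to the Hill equation.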
# IkB sig inh: IkB pathway inhibition in ABC-DLBCL cells; Potency, µM (series often up to 57.1 µM), for inactives: at the highest dose IkBa stabilization activation; ABC-DLBCL IkBa-CBG/CBR dual luciferase ratio, 4 h; response scale: scaled: untreated 0%, proteasome inhibitor 100%; actives 0.04% (n = 110,000); active = well fitted curve in the direction sought with a large enough effect in the signal ratio, not every such curve was filed as active; inconclusive = small, poorly fitted or top-dose-only effect, or a change in a side signal; the % refers to the signal ratio;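 note: the direction sought is a rising ratio; 0% = basal untreated cells and 100% = reference inhibitor full response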
#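 Curves were fitted separately to fusion (green), unfused (red) and ratio luminescence, then classed by r2, magnitude and activity. Cells: OCI-Ly3, 4 h compound plus doxycycline at 37C; 10 uM MG-132 defined full response.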
# * = called active by the depositor; ? = inconclusive; nt = not tested or not shown; & = joins results of further samples; ! = repeats disagree; [ ] = dose if it differs, or a comment. Potency is the fitted concentration of half-maximal effect. The list is partial, and most or all hits are left out here.
SMILES,Imprint erasure,IkB sig inh
O=c1[nH]c(=O)n(C2CC(O)C(CO)O2)cc1C(F)(F)F (stereo not given),-10%,nt
CCC(C)(C)OC,-2%,2.7%
CNC(C)C1CC[C@H](N)[C@@H](OC2C(N)C[C@H](N)[C@@H](OC3OC[C@](C)(O)C(NC)[C@H]3O)C2O)O1 (stereo not given in full),-11%,nt
C[C@@]12CCC(=O)C=C1C=C[C@H]1[C@H]3CC[C@](O)(CCC(=O)O)[C@]3(C)CC[C@@H]12,-2%[16.8 µM],-1.4%[25.6 µM]
CCC(=O)OCC(=O)[C@@]1(OC(=O)CC)[C@H](C)C[C@@H]2[C@H]3CCC4=CC(=O)C=C[C@]4(C)[C@]3(Cl)[C@@H](O)C[C@@]21C,-10%[16.8 µM],?
c1ccc2nc(N3CCNCC3)ccc2c1,-42%[inhibitor],-0.3%
CN(C)c1cccc(O)c1,-5%,3.7%
CC(=O)/C=C/c1ccccc1,1%,1.9%
C=C1C/C(=C/C)C(=O)O[C@@H]2CCN3CC=C(COC(=O)[C@]1(C)O)[C@@H]23,-8%,nt
C=C1C[C@]23C[C@@]1(O)CC[C@H]2[C@@]12C=C[C@H](O)[C@@](C)(C(=O)O1)[C@H]2[C@@H]3C(=O)O,-4%,0.6%
ClCBr,-1%,-1.1%
C[C@@H]1O[C@H](O[C@@H]2[C@H](C)O[C@H](O[C@@H]3[C@H](C)O[C@H](O[C@H]4CC[C@]5(C)[C@@H](CC[C@@H]6[C@H]5C[C@@H](O)[C@]5(C)[C@@H](C7=CC(=O)OC7)CC[C@]65O)C4)C[C@@H]3O)C[C@@H]2O)C[C@H](O)[C@@H]1O,-8%[16.8 µM],?
CC(C)NCC(O)c1ccc(O)c(O)c1 (stereo not given),-4%&-6%&-4%&-6%,-0.8%
CN(C)c1ccc(O)c2c1C[C@@H]1C[C@H]3C(N(C)C)C(=O)C(C(N)=O)=C(O)[C@@]3(O)C(=O)C1=C2O (stereo not given in full),8%,nt
C[C@H](C(=O)O)c1cccc(Oc2ccccc2)c1,-9%[16.8 µM],1.0%[25.6 µM]
C=C(C)C1CNC(C(=O)O)C1CC(=O)O (stereo not given),-4%,nt
O=S(=O)(Cl)c1ccccc1,-6%,?
CNCCCCCCCCSc1nc(C(C)C)ccc1C(=O)c1cccs1,-43%[inhibitor],0.2%
COC(=O)c1ccc(C23CC4(C2)[C@H](CN(Cc2cccnc2)[C@@H]4c2ccccc2)C3c2ccc(Cl)nc2)cc1 (stereo not given in full),-15%,nt
C[N+](C)(CCCOc1ccccc1)c1ccccc1,-35%[inhibitor][16.8 µM],2.0%[25.6 µM]
Cc1ccc(CNc2ccc(O)cc2)cc1,-33%[inhibitor],?
CCOc1ccc(NC(=O)Nc2ccc3snnc3c2)cc1,-12%[10.9 µM],-0.8%
COc1ccc([N+](=O)[O-])cc1N,0%,-2.1%
CCCCOc1ccc(CC2C(=O)N(C)C(=O)N(C)C2=O)cc1,-3%,0.5%
CC[C@@H]1OC(=O)[C@H](C)[C@H](O[C@@H]2C[C@](C)(OC)[C@H](O)[C@H](C)O2)[C@H](C)[C@H](O[C@@H]2O[C@@H](C)C[C@@H](N(C)C)[C@@H]2O)[C@](C)(O)C[C@H](C)C(=NOCOCCOC)[C@H](C)[C@H](O)[C@]1(C)O,-6%[16.8 µM],0.1%[25.6 µM]
CN(C)CC/C=C1/c2ccccc2COc2ccccc21,-16%,nt
CCC(C)(C)NC(=O)C(c1ccc(C)o1)N(Cc1cccs1)C(=O)Cn1nnc2ccccc21 (stereo not given),-20%,1.3%
N#[N+]c1ccc(Nc2ccccc2)cc1,2%[10.9 µM],-0.2%[11.4 µM]
C1CCC2=NCCCN2CC1,7%,-0.6%
Nc1ncn([C@@H]2O[C@H](CO)[C@@H](O)[C@H]2O)c(=O)n1,-31%&-28%[inhibitor],?
Cc1cccc(C)c1,0%,-0.9%
CC(C)CON=O,-2%,-1.0%
CCOC(=O)c1c(C)n(C)c2ccc(OC)c(NC(=O)CN3CCN(C(=O)c4ccco4)CC3)c12,11%,-2.0%
CN(C)/N=N\c1nc[nH]c1C(N)=O,9%[16.8 µM],1.0%[25.6 µM]
NS(=O)(=O)c1cc(C(=O)O)c(NCc2ccco2)cc1Cl,-6%,1.1%
CCC[C@H]1C(=O)N2C(N(C)C)=Nc3ccc(C)cc3N2C1=O,-5%[16.8 µM],0.2%[25.6 µM]
Fc1ccc(C(c2ccc(F)cc2)N2CCN(C/C=C\c3ccccc3)CC2)cc1,-30%,?
CCN(Cc1ccncc1)C(=O)[C@@H](CO)c1ccccc1,10%,0.0%
O=C(O)/C=C/c1ccc(O)c(O)c1,-2%&3%&11%,nt
O=C1C=CC(=O)c2c(O)cccc21,-37%[inhibitor],nt
CN1CCC(OC(c2ccccc2)c2ccccc2)CC1,-5%,0.4%[25.6 µM]
OCCOCCO,9%,0.3%
CN(C)CCC(c1ccc(Cl)cc1)c1ccccn1 (stereo not given),-25%&-16%,2.0%
O=C(O)Cc1ccccc1,-5%,nt
C[N+]1([O-])[C@@H]2CC(OC(=O)[C@@H](CO)c3ccccc3)C[C@@H]1[C@H]1O[C@H]12 (stereo not given in full),24%[10.9 µM],2.0%[11.4 µM]
N[C@H]1CONC1=O,-5%,nt
CN(C)[C@@H]1C(=O)C(C(N)=O)=C(O)[C@@]2(O)C(=O)C3=C(O)c4c(O)cccc4[C@@](C)(O)[C@H]3[C@H](O)[C@@H]12,-4%,1.1%
Clc1ccccc1,-5%,2.4%
CC1=C(C(=O)OCc2ccc3c(c2)OCO3)C(c2ccccc2)NC(=O)N1 (stereo not given),-15%,?
N[C@@H]1CONC1=O,-4%,0.0%[25.6 µM]
CC(C)C(=O)Nc1ccc([N+](=O)[O-])c(C(F)(F)F)c1,-16%,-1.9%
O=C(O)C1=CC(O)[C@@H](O)C(O)C1 (stereo not given in full),25%,nt
Cc1onc(-c2c(Cl)cccc2Cl)c1C(=O)NC1C(=O)N2C1SC(C)(C)C2C(=O)O (stereo not given),-6%,nt
Cc1c(N)cccc1N,0%,-0.6%
Oc1c(Br)cc(Br)cc1Br,-4%,3.9%
CC(=O)OCC1=C(C(=O)O)N2C(=O)C(NC(=O)CSc3ccncc3)[C@@H]2SC1 (stereo not given in full),-10%,nt
COc1ccc2cc1Oc1ccc(cc1)C[C@H]1c3cc(c(OC)cc3CCN1C)Oc1c(OC)c(OC)cc3c1[C@@H](C2)N(C)CC3,-1%[10.9 µM],2.0%[11.4 µM]
CCC(Cl)CC(Cl)C(Cl)C(Cl)C(Cl)C(C)Cl (stereo not given),-2%,-1.7%
N[C@@H](CC(=O)O)C(=O)O,-5%&-3%,0.6%
NC[C@@H](CC(=O)O)c1ccc(Cl)cc1,4%,3.2µM*!
# Other compounds
SMILES,Imprint erasure,IkB sig inh
CC(C)NC[C@@H](O)COc1cccc2ccccc12,-13%,0.0%
CN[C@@H]1[C@H](O[C@H]2[C@@H](O[C@@H]3[C@@H](O)[C@@H](O)[C@@H](N=C(N)N)[C@@H](O)[C@@H]3N=C(N)N)O[C@@H](C)[C@]2(O)CO)O[C@H](CO)[C@@H](O)[C@@H]1O,2%[16.8 µM],-1.3%[25.6 µM]
Nc1nc2ccc(OC(F)(F)F)cc2s1,-27%,-0.7%
COP(=O)(OC)OC=C(Cl)Cl,12%&-17%,?
O=c1ccn([C@@H]2O[C@H](CO)[C@@H](O)[C@H]2O)c(=O)[nH]1,-7%,nt
CC1=C(C(=O)O)N2C(=O)[C@@H](NC(=O)[C@H](N)c3ccccc3)[C@H]2SC1,3%,nt
NC1C[C@H]1c1ccccc1 (stereo not given in full),-18%,nt
NS(=O)(=O)c1ccc(NC(=O)c2ccccc2C(=O)N2CCCCC2)cc1,-3%,-1.3%
Fc1ccc(C(c2ccc(F)cc2)N2CCN(C/C=C/c3ccccc3)CC2)cc1,-38%&-25%[inhibitor],nt
Brc1cccc(-c2ccccc2)c1,5%,-2.9%
C=C[C@](C)(O)CCC=C(C)C,27%,nt
CCCCC(C=O)CC (stereo not given),-5%,-1.5%
CC(C)O,2%,-1.6%
Nc1ccn([C@@H]2O[C@H](CO)[C@@H](O)[C@H]2O)c(=O)n1,2%,nt
CCCCOC(=O)C1=C(C)Nc2nnnn2C1c1ccc(OC)c(OC)c1OC (stereo not given),-6%,0.0%
S=C(NC1CCCCC1)NC1CCCCC1,-10%,-1.0%
COP(=O)(OC)OC(c1ccc(Cl)cc1)P(=O)(OC)OC (stereo not given),-2%,nt
C[n+]1c2cc(N)ccc2cc2ccc(N)cc21,-31%[inhibitor],nt
CN(C)CC[C@H](c1ccc(Br)cc1)c1ccccn1,-13%[16.8 µM],-1.1%[25.6 µM]
OC/C(Br)=C(\Br)CO,2%,0.5%

# Quoted from above for reference:
SMILES,Imprint erasure,IkB sig inh
CC(C)NC[C@@H](O)COc1cccc2ccccc12,-13%,0.0%
CN[C@@H]1[C@H](O[C@H]2[C@@H](O[C@@H]3[C@@H](O)[C@@H](O)[C@@H](N=C(N)N)[C@@H](O)[C@@H]3N=C(N)N)O[C@@H](C)[C@]2(O)CO)O[C@H](CO)[C@@H](O)[C@@H]1O,2%[16.8 µM],-1.3%[25.6 µM]
Nc1nc2ccc(OC(F)(F)F)cc2s1,-27%,-0.7%
COP(=O)(OC)OC=C(Cl)Cl,12%&-17%,?
O=c1ccn([C@@H]2O[C@H](CO)[C@@H](O)[C@H]2O)c(=O)[nH]1,-7%,nt
CC1=C(C(=O)O)N2C(=O)[C@@H](NC(=O)[C@H](N)c3ccccc3)[C@H]2SC1,3%,nt
NC1C[C@H]1c1ccccc1 (stereo not given in full),-18%,nt
NS(=O)(=O)c1ccc(NC(=O)c2ccccc2C(=O)N2CCCCC2)cc1,-3%,-1.3%
Fc1ccc(C(c2ccc(F)cc2)N2CCN(C/C=C/c3ccccc3)CC2)cc1,-38%&-25%[inhibitor],nt
Brc1cccc(-c2ccccc2)c1,5%,-2.9%
C=C[C@](C)(O)CCC=C(C)C,27%,nt
CCCCC(C=O)CC (stereo not given),-5%,-1.5%
CC(C)O,2%,-1.6%
Nc1ccn([C@@H]2O[C@H](CO)[C@@H](O)[C@H]2O)c(=O)n1,2%,nt
CCCCOC(=O)C1=C(C)Nc2nnnn2C1c1ccc(OC)c(OC)c1OC (stereo not given),-6%,0.0%
S=C(NC1CCCCC1)NC1CCCCC1,-10%,-1.0%
COP(=O)(OC)OC(c1ccc(Cl)cc1)P(=O)(OC)OC (stereo not given),-2%,nt
C[n+]1c2cc(N)ccc2cc2ccc(N)cc21,-31%[inhibitor],nt
CN(C)CC[C@H](c1ccc(Br)cc1)c1ccccn1,-13%[16.8 µM],-1.1%[25.6 µM]

# Further entries follow.
SMILES,Imprint erasure,IkB sig inh
O=C(Cc1ccccc1)OCc1ccccc1,3%,-2.2%
CC(N)CN (stereo not given),3%,-2.3%
C#C[C@]1(O)CC[C@@H]2[C@H]3CCC4=Cc5oncc5C[C@]4(C)[C@@H]3CC[C@@]21C,-6%[16.8 µM],4.2%[25.6 µM]
O=C(O)C1C2C=CC(C2)C1C(=O)NCCC1=CCCCC1 (stereo not given),-7%,-0.3%
c1ccc2c(c1)CCCC2C1=NCCN1 (stereo not given),-3%&4%&-27%,1.6%
Clc1ccc(C(Cl)(Cl)Cl)c(Cl)c1,0%,0.5%
Cc1cccc(C)c1NC1=NCCCS1,-15%,-0.1%
CNC(=O)Oc1ccc2c(c1)C1(C)CCN(C)C1N2C (stereo not given),-5%,nt
CC(C)N(C(=O)CCl)c1ccccc1,-20%,nt
Cc1ccc([N+](=O)[O-])cc1C,-3%,-0.4%
O=C(O)c1cccc(Cl)c1,-15%,-0.8%
O=C(C1CCCCC1)N1CC(=O)N2CCc3ccccc3[C@@H]2C1,-5%[16.8 µM],1.2%[25.6 µM]
CC1O[C@@H](OC2CC(O)[C@@]3(CO)C4C(O)C[C@@]5(C)C(C6=CC(=O)OC6)CC[C@]5(O)C4CC[C@]3(O)C2)C(O)C(O)C1O (stereo not given in full),-8%,nt
Nc1ccc([N+](=O)[O-])cc1[N+](=O)[O-],-2%,-0.1%
O=C(O)CC(O)(CC(=O)O)C(=O)O,-4%&2%,0.3%
CCN(CC)CCC[C@H](C)Nc1ccnc2cc(Cl)ccc12,4%[16.8 µM],-0.9%[25.6 µM]
O=c1oc2ccccc2c(O)c1Cc1c(O)c2ccccc2oc1=O,5%,?
CC[C@H]1CN2CCc3cc(OC)c(OC)cc3[C@@H]2C[C@@H]1C[C@H]1NCCc2cc(OC)c(OC)cc21,-34%[inhibitor],nt
Oc1c(Cl)cc(Cl)cc1Sc1cc(Cl)cc(Cl)c1O,-18%&-6%,?
IC(I)I,-7%,3.1%
